2A firefly – lowers the firefly signal of an FMDV 2A StopGo reporter | HEK cells with a luciferase reporter of 2A StopGo recoding | Potency, µM (titrated, usually from 57.5 µM), inactives show at the highest dose signal change, negative = less light | 0.23% of 120,000 active | AID 1745856; active = well fitted falling curve with a large enough effect; inconclusive = small, poorly fitted or top-dose-only effect; inactive = no such curve, though single readings can be large or run the other way; further: nearly all actives have a fitted effect of over 60% in size; overnight with compound
StopGo RLuc – FMDV 2A StopGo reporter, Renilla signal. HEK cells with a luciferase reporter of 2A StopGo recoding. Potency, µM (titrated, usually from 57.5 µM), for inactives: top-dose signal change, negative = less light. 0.32% of 120,000 active. AID 1745857; active means well fitted falling curve with a large enough effect; inconclusive means small, poorly fitted or top-dose-only effect; inactive means no such curve, though single readings can be large or run the other way; further: nearly all actives have a fitted effect of over 55% in size; overnight with compound
* = called active by the depositor; ? = inconclusive; & = joins results of further samples; [ ] = another dose, or the depositor's remark. On the % scale 0 is the no-effect control and ±100 the full control effect; potency means the concentration at half of the fitted maximal effect. Not all compounds are listed; count on the stated rates, not on these rows.

SMILES	2A firefly	StopGo RLuc
CN1CCCN=C1COC(=O)C(O)(c1ccccc1)C1CCCCC1 (stereo not given)	-25%	-20%
Cc1cncn1CCc1nc2c3ccccc3nc(SCC(=O)Nc3cccc(Cl)c3)n2n1	-22%	-19%
NS(=O)(=O)c1cc2c(cc1Cl)CN(C1CCCCC1)C2=O	4%	-5%
N[C@@H](Cc1c[nH]c2ccc(O)cc12)C(=O)O	-4%[11.5 µM]	-8%
COc1ccc(-n2nc3c(N4CCCC(C(=O)NCc5ccccc5C)C4)nnc(C)c3c2C)cc1 (stereo not given)	7%	-28%
CC1Cc2ccccc2N1NC(=O)c1ccc(Cl)c(S(N)(=O)=O)c1 (stereo not given)	-10%	7%
COc1cc(C(c2c(C)[nH][nH]c2=O)c2c(C)[nH][nH]c2=O)ccc1OC(=O)c1cccc(C)c1	-18%	-9%
CC(=O)Oc1ccc(C(=C2CCCCC2)c2ccc(OC(C)=O)cc2)cc1	-13%[11.5 µM]	-7%
CCCOC(=O)c1ccc(N)cc1	25%	4%
CO/N=C(/C(=O)N[C@@H]1C(=O)N2C(C(=O)O)=C(Cn3nnc(C)n3)CS[C@H]12)c1csc(N)n1	-9%	-7%
CCCCC(CC)CNC(=O)CC(C)OC(=O)CCC(=O)O (stereo not given)	37%[activator]	-5%
NC(=O)C1(N2CCCCC2)CCN(CCCC(=O)c2ccc(F)cc2)CC1	-21%	-11%
COCCc1ccccn1	-18%	-14%
CCN(CC)CCOC(=O)c1ccc(N)cc1	-15%	-7%
COc1ccc(C2CNC(=O)C2)cc1OC1CCCC1 (stereo not given)	-13%[11.5 µM]	-10%
Cc1c(C(=O)O)c(O)cc2c1C(=O)c1c(O)c([C@@H]3O[C@H](CO)[C@@H](O)[C@H](O)[C@H]3O)c(O)c(O)c1C2=O	?	-33%
COCCn1c(SCC(=O)Nc2ccc(F)c(Cl)c2)nc2c(oc3ccccc32)c1=O	-11%	-4%
CCCCNc1ccc(C(=O)OCCN(C)C)cc1	8%[11.5 µM]	3%
CCOC(=O)N1CCC(n2c(=O)[nH]c3cc(Cl)ccc32)CC1	-19%[11.5 µM]	?
Cc1[nH]cnc1-c1ccc(Cl)cc1	15%[11.5 µM]	6%
O=c1cc(O)c(Cl)c[nH]1	-15%	-6%
O=C(O)CCC(=O)c1ccc(-c2ccccc2)cc1	10%[11.5 µM]	8%
CC[C@H](NC(C)C)[C@H](O)c1ccc(O)c2[nH]c(=O)ccc12	17%[11.5 µM]	-2%
COc1ccc(-c2cc(=O)c3c(O)cc(O[C@@H]4O[C@H](CO[C@@H]5O[C@@H](C)[C@H](O)[C@@H](O)[C@H]5O)[C@@H](O)[C@H](O)[C@H]4O)cc3o2)cc1O	-4%	2%
CCCCN(CCCC)C(C(N)=O)c1ccc(OC)cc1 (stereo not given)	11%[11.5 µM]	15%

3 structures from above, ordered by length of the SMILES, low to high.
SMILES	2A firefly	StopGo RLuc
CC1Cc2ccccc2N1NC(=O)c1ccc(Cl)c(S(N)(=O)=O)c1 (stereo not given)	-10%	7%
NC(=O)C1(N2CCCCC2)CCN(CCCC(=O)c2ccc(F)cc2)CC1	-21%	-11%
COc1cc(C(c2c(C)[nH][nH]c2=O)c2c(C)[nH][nH]c2=O)ccc1OC(=O)c1cccc(C)c1	-18%	-9%

An excerpt of these results, as comma-separated lines:
SMILES,2A firefly,StopGo RLuc
COc1ccc(-n2nc3c(N4CCCC(C(=O)NCc5ccccc5C)C4)nnc(C)c3c2C)cc1 (stereo not given),7%,-28%
CC1Cc2ccccc2N1NC(=O)c1ccc(Cl)c(S(N)(=O)=O)c1 (stereo not given),-10%,7%
COc1cc(C(c2c(C)[nH][nH]c2=O)c2c(C)[nH][nH]c2=O)ccc1OC(=O)c1cccc(C)c1,-18%,-9%
CC(=O)Oc1ccc(C(=C2CCCCC2)c2ccc(OC(C)=O)cc2)cc1,-13%[11.5 µM],-7%
CCCOC(=O)c1ccc(N)cc1,25%,4%
CO/N=C(/C(=O)N[C@@H]1C(=O)N2C(C(=O)O)=C(Cn3nnc(C)n3)CS[C@H]12)c1csc(N)n1,-9%,-7%
CCCCC(CC)CNC(=O)CC(C)OC(=O)CCC(=O)O (stereo not given),37%[activator],-5%

Whole records as entered above:
COCCn1c(SCC(=O)Nc2ccc(F)c(Cl)c2)nc2c(oc3ccccc32)c1=O is entered as 2A firefly = -11%; StopGo RLuc = -4%
CCN(CC)CCOC(=O)c1ccc(N)cc1 is entered as 2A firefly = -15%; StopGo RLuc = -7%

The main list resumes, repeating the 2 entries before the break.
SMILES	2A firefly	StopGo RLuc
COc1ccc(-c2cc(=O)c3c(O)cc(O[C@@H]4O[C@H](CO[C@@H]5O[C@@H](C)[C@H](O)[C@@H](O)[C@H]5O)[C@@H](O)[C@H](O)[C@H]4O)cc3o2)cc1O	-4%	2%
CCCCN(CCCC)C(C(N)=O)c1ccc(OC)cc1 (stereo not given)	11%[11.5 µM]	15%
C/C=C/C(=O)N(CC)c1ccccc1C	29%[11.5 µM]	3%
O=C(CCCl)NCc1ccccc1	-14%[11.5 µM]	-10%
CCOC(=O)[C@H](CCc1ccccc1)N[C@@H](C)C(=O)N1Cc2ccccc2C[C@H]1C(=O)O	-11%	-6%
CCOC(=O)[C@H](CCc1ccccc1)N[C@H]1CS[C@H](c2cccs2)CN(CC(=O)O)C1=O	13%[11.5 µM]	0%
CC(C)COC(=O)c1ccc(N)cc1	6%[11.5 µM]	3%
CCn1cc(C(=O)O)c(=O)c2cnc(N3CCNCC3)nc21	-8%	-12%
CCCCCC(=O)O[C@]1(C(C)=O)CC[C@H]2[C@@H]3CCC4=CC(=O)CC[C@]4(C)[C@H]3CC[C@@]21C	-4%[11.5 µM]	4%
CC(=O)N1N=C(c2cccc(O)c2)CC1c1ccco1 (stereo not given)	0%	8%
NC1CCN(c2nc3c(cc2F)c(=O)c(C(=O)O)cn3-c2ccc(F)cc2F)C1 (stereo not given)	-5%[11.5 µM]	35%[activator]
O=C(O)c1cccnc1Nc1cccc(C(F)(F)F)c1	2%[11.5 µM]	-7%
O=C(CSc1ccccc1)c1c[nH]c2ccccc12	61%[activator]	25%
CC(=O)CCCCn1c(=O)c2c(ncn2C)n(C)c1=O	-7%	-1%
CCNC(=O)NCc1cccc(Cl)c1	-13%	-10%
CC12CC3CC(C)(C1)CC(N)(C3)C2	-15%&-8%	-4%&-4%
CCCCCCCCCCCCCCC[C@H](O)[C@@H](N)CO	-12%	-11%
CCc1ccc(CCOc2ccc(CC3SC(=O)NC3=O)cc2)nc1 (stereo not given)	1%	4%
Cn1cc(S(C)=O)c(=O)c2ccc(F)cc21 (stereo not given)	-10%	-2%
O=C(CCCCCn1c(=O)c2sccc2n(CC(=O)Nc2cccc(Cl)c2)c1=O)NCc1ccc2c(c1)OCO2	41%[activator]	-5%
Cc1cccc(N2CCN(C(=O)CCC(=O)NNc3nc4ccccc4c4nc(C)nn34)CC2C)c1 (stereo not given)	22%	-19%
O=C(Cn1c(=O)n(Cc2ccco2)c(=O)c2oc3ccccc3c21)Nc1ccccc1	-12%	-6%
O=c1oc2c(O)c(O)cc3c(=O)oc4c(O)c(O)cc1c4c23	-25%[27 µM]	-17%[23.8 µM]
COc1ccccc1OCC1CNC(=O)O1 (stereo not given)	6%	0%
Cc1ccc(=O)n(-c2ccccc2)c1	-10%	-3%
C=CCn1c(=O)n([C@@H]2O[C@H](CO)[C@@H](O)[C@H]2O)c2nc(N)[nH]c(=O)c21	-8%[11.5 µM]	-13%
CCN(CC)CCNC(C(=O)OCCC(C)C)c1ccccc1 (stereo not given)	-14%[11.5 µM]	-4%

Additional records follow.
SMILES	2A firefly	StopGo RLuc
Cc1nc2c(-c3ccccc3)c(C)[nH]n2c(=O)c1Cc1ccc(Br)cc1	-30%	-3%
Cc1ccc(N(CC2=NCCN2)c2cccc(O)c2)cc1	0%[11.5 µM]	-6%
CNCCCN1c2ccccc2CCc2ccccc21	-23%	-15%
CC(O)CNC(=O)C(=O)Nc1c2c(nn1-c1ccc(Cl)cc1)CSC2 (stereo not given)	-31%	-22%
C[N+]1(C)CCC(=C(c2ccccc2)c2ccccc2)CC1	-13%[11.5 µM]	-14%
C1COC(NC(C2CC2)C2CC2)=N1	-19%	-14%
N[C@H]1CN(c2c(F)cc3c(=O)c(C(=O)O)cn(C4C[C@@H]4F)c3c2Cl)CC12CC2 (stereo not given in full)	-21%	-9%
CC(C(=O)O)c1ccc2c(c1)CC(=O)c1ccccc1S2 (stereo not given)	-15%[11.5 µM]	-18%
Oc1ccc(C2CNCCc3c2cc(O)c(O)c3Cl)cc1 (stereo not given)	-9%[11.5 µM]	-4%
COc1ccc(CC(=O)Nc2c(C(=O)N3CCN(c4ccccc4F)CC3)oc3ccccc23)cc1OC	1%	235%[activator]
Cc1ccc(S(=O)(=O)NC(=O)NC2CCCCC2)cc1	-9%	89%[activator]
CCNC(=O)NCCCOc1cccc(CN2CCCCC2)c1	14%	-15%
COc1ccc(-c2cc(=S)ss2)cc1	53%[activator]	-3%
c1cnc2cc3c(cc2n1)C1CNCC3C1	-3%	1%
CO/N=C(/C(=O)N[C@@H]1C(=O)N2C(C(=O)[O-])=C(C[n+]3ccn4ncccc43)CS[C@H]12)c1nsc(N)n1	-16%[11.5 µM]	-5%
O=C(CSc1nc2ccccc2n1Cc1cccc(Cl)c1)N1CCN(c2ccc(F)cc2)CC1	-2%	-2%
Cc1cc(O)c(C)c(C)c1O	2%	3%&1%
CCCCNc1ccc(C(=O)OCCOCCOCCOCCOCCOCCOCCOCCOCCOC)cc1	7%[11.5 µM]	-32%
Cc1c(Cn2ccnc2)c2ccccc2n1CCC(=O)O	-7%[11.5 µM]	3%
CCCCn1cnc2cc(NCc3ccccc3Cl)ccc21	101%[activator]	23%
CC(=O)Nc1ccc(CC(=O)O)cc1	-7%[11.5 µM]	-11%
CCOC(N)=O	-5%[11.5 µM]	0%
COc1ccc(-c2cn3cccnc3n2)cc1NC(=O)c1cc(C)cc(C)c1	0%	9%
Cc1cc(=O)oc2cc(O[C@@H]3SC[C@@H](O)[C@H](O)[C@H]3O)ccc12	2%[11.5 µM]	8%
COc1ccc(Cn2c(SCc3ccc(C(=O)NC4CCCC4)cc3)nc3ccncc32)cc1	-11%	-9%
